hNpr1 antagonist: Natriuretic polypeptide receptor (hNpr1) antagonism - Primary qHTS; HEK293 hNpr1 GloSensor cGMP, ANP-stimulated luminescence; Potency, µM (doses to about 46.3 µM), inactives show at the highest dose activity change, negative = inhibition, usual class: inhibitors; 1.6% of 76,000 active; AID 1347048, 2019; active = well fitted inhibition curve with a large enough effect; inconclusive = small, poorly fitted or top-dose-only effect; inactive = no such curve, though single readings can be large or run the other way;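 note: nearly all actives have a fitted effect of over 60% in size; nearly all hits also lower the signal before the agonist is added; a reference antagonist and vehicle were the controls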
Target sequence (P16066 whole entry, looked up): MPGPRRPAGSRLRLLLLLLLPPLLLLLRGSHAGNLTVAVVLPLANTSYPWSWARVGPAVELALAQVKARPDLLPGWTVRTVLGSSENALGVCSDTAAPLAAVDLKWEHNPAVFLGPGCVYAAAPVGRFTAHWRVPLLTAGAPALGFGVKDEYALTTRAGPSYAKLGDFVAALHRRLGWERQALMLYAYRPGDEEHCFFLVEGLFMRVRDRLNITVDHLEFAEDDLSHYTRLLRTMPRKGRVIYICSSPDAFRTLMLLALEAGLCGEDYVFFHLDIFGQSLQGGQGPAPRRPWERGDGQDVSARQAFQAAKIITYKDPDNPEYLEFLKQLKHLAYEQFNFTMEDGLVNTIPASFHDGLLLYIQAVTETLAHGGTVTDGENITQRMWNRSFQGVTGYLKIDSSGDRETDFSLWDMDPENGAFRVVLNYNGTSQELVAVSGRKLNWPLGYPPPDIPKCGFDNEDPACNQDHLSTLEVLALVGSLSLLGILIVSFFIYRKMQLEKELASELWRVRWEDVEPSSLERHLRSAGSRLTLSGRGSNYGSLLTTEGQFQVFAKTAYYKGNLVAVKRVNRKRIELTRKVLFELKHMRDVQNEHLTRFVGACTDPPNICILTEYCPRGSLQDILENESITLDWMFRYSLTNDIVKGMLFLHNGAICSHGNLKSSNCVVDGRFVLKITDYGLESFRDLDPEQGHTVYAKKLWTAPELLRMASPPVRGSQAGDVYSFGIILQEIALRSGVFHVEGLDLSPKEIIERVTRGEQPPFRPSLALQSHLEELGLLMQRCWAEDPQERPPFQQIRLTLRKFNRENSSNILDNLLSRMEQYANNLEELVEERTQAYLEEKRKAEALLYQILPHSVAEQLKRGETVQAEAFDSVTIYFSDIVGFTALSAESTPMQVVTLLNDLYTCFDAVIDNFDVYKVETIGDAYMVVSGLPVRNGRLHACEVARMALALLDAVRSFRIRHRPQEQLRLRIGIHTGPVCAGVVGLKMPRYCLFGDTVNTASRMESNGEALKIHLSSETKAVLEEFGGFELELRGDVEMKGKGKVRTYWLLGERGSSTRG
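Compound pre-incubated 30 min at room temperature on GloSensor-loaded HEK293 cells stably carrying hNpr1 and the pGS-40F cGMP biosensor. Stimulation uses hNppA at 0.1 nM final; luminescence is taken at baseline and 20 min post-agonist.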
* = called active by the depositor; ? = inconclusive; & = joins results of further samples; [ ] = remark or other dose. % is set by controls: 0 for no effect and ±100 for the full control effect; potency is the fitted concentration of half-maximal effect. These rows are one share of the data (hit frequency here may not be typical).

Start of the listing, in advance:
SMILES	hNpr1 antagonist
Cc1c(-c2ccc(F)cc2)[nH]c2ccc(CNC(=O)c3cnn(C)c3)cc12	?
COCCOCc1nc(C2CCN(C(=O)NCc3ccc(C)cc3)CC2)no1	50%[activator]

All compounds of this part, from the start:
SMILES	hNpr1 antagonist
Cc1c(-c2ccc(F)cc2)[nH]c2ccc(CNC(=O)c3cnn(C)c3)cc12	?
COCCOCc1nc(C2CCN(C(=O)NCc3ccc(C)cc3)CC2)no1	50%[activator]
CN1Cc2ncnc(NCC3CC3)c2CN(c2ccc(Cl)cc2)C1=O	2%
Cn1cc(C(=O)NCC2CN(C(=O)c3ccc(Oc4ccccc4)cc3)CC23CN(c2ccccc2)C3)cn1 (stereo not drawn)	-30%
CN1C(=O)c2cccn2CC1CNS(=O)(=O)c1ccccc1 (stereo not drawn)	-1%
NCCc1cccc(CN2CCCC(COc3ccccc3F)C2)c1 (stereo not drawn)	-1%
CN1CCC(NC[C@H]2O[C@H](Cc3cc(-c4cccc(O)c4)on3)CC[C@@H]2O)CC1	?
Cc1ccc(-n2nc(-c3c(C)nc4scc(CC(=O)NC(C)C)n4c3=O)cc2C)cc1	-1%
COc1ccc(C(=O)N[C@@H]2CCC[C@@H]2C(=O)NC2CCN(Cc3ccccc3)CC2)cn1	-1%
COCC(=O)N1CCCCC1c1nc(-c2ccccc2)n[nH]1 (stereo not drawn)	-2%
C=CCN1C[C@@H]2CN(C(=O)CCc3ccc(OC)cc3)C[C@]2(C(=O)O)C1	-1%
COCCn1c(C)cc(C(=O)N2CCCC(c3[nH]ccc3C(N)=O)C2)c1C (stereo not drawn)	6%
COc1ccc(-c2cc3c(=O)n(CCNC(=O)c4ccco4)ccn3n2)cc1	-16%
CCOc1ccccc1CNC(=O)[C@@]12CCCC[C@H]1N(CCOC)C(=O)CC2	-2%
Cn1nc(C2CCN(C(=O)c3ccco3)CC2)c2c1CCOC2	4%
CC(C)(C)C(=O)N1CCC2(CC1)CCN(Cc1cccs1)c1ccccc1O2	-27%
COc1ccc(C(=O)NCc2nnc3c(-c4nc(C)no4)cccn23)cc1	8%
COCC(=O)N1CCCn2ccnc2C1C(C)C (stereo not drawn)	7%
CCc1nc(-c2c3n(c(=O)n(CCOc4ccc(F)cc4)c2=O)CCCC3)no1	-1%
O=C(O)CN1C(=O)[C@@H]2C[C@@H](CN2C(=O)c2ccccc2)Oc2ccccc21	4%[70.6 µM]
CCn1c2ccccc2c2cc(C(=O)N3C[C@@H](Oc4ccccc4)C[C@@H]3C(=O)NC)ccc21	-14%
Cc1noc(C)c1-c1cc2cc(CO)oc2c(-c2cccc(OC(C)C)c2)n1	-15%[70.6 µM]
CCNC(=O)c1cccnc1OC1CCN(C(=O)c2ccccc2C)C1 (stereo not drawn)	0%
COc1ccc(NC(=O)c2cc3c(n2C)CCN(Cc2ccc(F)cc2)C3)cc1	-3%
O=C(NC1CC1)c1ccc(Cn2ccn3nc4c(c3c2=O)CCCC4)cc1	-9%
CCC(=O)Nc1cccc(C2OC(=O)N(Cc3ccc(C)cc3)C2C(=O)NCCOC)c1 (stereo not drawn)	-1%
COCCN1CC2CN(C(=O)c3ccco3)CC(C1)O2	4%
COc1cccc(CNC(=O)[C@@H]2C[C@@H](O)CN2C2CCN(C(=O)c3ccc(C)nc3)CC2)c1	-11%
CN(C(=O)Cn1ccn2nc3c(c2c1=O)CCCC3)C1CCCCC1	6%
CNC(=O)c1cccc(-c2cnc3[nH]cc(CC(=O)Nc4ccccc4C)c3c2)c1	0%[70.6 µM]
O=C(NCc1ccco1)C1c2ccccc2C(=O)N(C2CCCCC2)C12CCCCC2 (stereo not drawn)	-18%
COC1CCOC2(CCN(C(=O)c3ccccn3)CC2)C1 (stereo not drawn)	0%
COc1ccccc1-c1noc(CCC(=O)N2CC[C@@](C)(O)[C@@H](O)C2)n1	0%
CCO[C@H]1CN(Cc2ccccc2OCC(=O)N2CCC(C)CC2)C[C@@H]1O	1%
O=C(CCc1c[nH]c2ccccc12)N1CCN2CCS(=O)(=O)N(C3CC3)C(=O)C2C1 (stereo not drawn)	-9%
Cn1cc(CN2CCCN(S(=O)(=O)c3ccccc3)CCC(=O)NCC2)c2ccccc21	-9%

Shown in CSV form: entries from further up.
mol,hNpr1 antagonist
O=C(NC1CC1)c1ccc(Cn2ccn3nc4c(c3c2=O)CCCC4)cc1,-9%
CCC(=O)Nc1cccc(C2OC(=O)N(Cc3ccc(C)cc3)C2C(=O)NCCOC)c1 (stereo not drawn),-1%

(listing goes on)
SMILES	hNpr1 antagonist
CCCS(=O)(=O)NCCc1ncc(C)n1C(C)C	4%
COC1CN(c2cccc(F)c2)C12CCN(S(=O)(=O)Cc1ccccc1F)CC2 (stereo not drawn)	-16%
COC(=O)c1cn([C@H]2CO[C@H]3[C@@H]2OC[C@H]3OC(=O)Nc2ccc(C(C)(C)C)cc2)nn1	2%[70.6 µM]
Cc1cccc(CN2CCC(N3CCCC(C(=O)NC4CC4)C3)CC2)c1 (stereo not drawn)	-7%
CCS(=O)(=O)N1C[C@@H](C(N)=O)[C@H](C2CCN(C)CC2)C1	6%
CC(CCc1ccccc1)NC(=O)CN1C(=O)NC2(CCCCC2)C1=O (stereo not drawn)	2%
COCC(=O)N(C1CCOCC1)C1CCN(C(=O)Cc2ccc(C)cc2)CC1	0%
COc1ccc(CNC(=O)N2CCCCC2c2nc(-c3ccncc3)n[nH]2)cc1 (stereo not drawn)	-5%
COc1ccc(OCc2nc3c(n2Cc2ccccc2)C(=O)N(Cc2ccccc2F)CCN3)cc1OC	-17%
CCc1nc(NC(CCn2cncn2)c2ccccc2)c2cnn(C)c2n1 (stereo not drawn)	0%
Cn1cccc1C(=O)N1CCCCCCNC(=O)[C@@H]2CCC[C@@H]21	7%
COc1ccc(C(=O)NC(C(=O)NC2CC2)C2CCN(C(C)=O)CC2)cc1 (stereo not drawn)	4%

Sorted by value in hNpr1 antagonist (smallest number first): 3 from the list above.
SMILES	hNpr1 antagonist
CCc1nc(NC(CCn2cncn2)c2ccccc2)c2cnn(C)c2n1 (stereo not drawn)	0%
CC(CCc1ccccc1)NC(=O)CN1C(=O)NC2(CCCCC2)C1=O (stereo not drawn)	2%
CCS(=O)(=O)N1C[C@@H](C(N)=O)[C@H](C2CCN(C)CC2)C1	6%

Going on with the list:
SMILES	hNpr1 antagonist
O=C(C1CC(=O)N(c2n[nH]c3cccc(F)c23)C1)N1CCN(c2cccc(Cl)c2)CC1 (stereo not drawn)	-3%
COc1cc(OC)cc(OCc2nc3c(n2Cc2ccccc2)C(=O)N(Cc2cccc(Cl)c2)CCN3)c1	-7%
CN(CC1CCOC1)C(=O)Nc1ccc(F)cc1 (stereo not drawn)	1%
CC(C)C(=O)N1CCC(Oc2ccccc2-c2nc(C3CC3)no2)C1 (stereo not drawn)	2%
CN(Cc1ccc(C(F)(F)F)cc1)C1CCc2ccccc21 (stereo not drawn)	32%&-4%&3%&-1%[activator][70.6 µM]
COc1ccc(NC(=O)c2ccc3c(c2)N(C)C2CCCCN2C3=O)cc1OC (stereo not drawn)	0%
Cc1ccsc1CN1CCc2nnc([C@@H]3C[C@@H](O)CN3C)n2CC1	-2%
Cc1noc(C)c1CCC(=O)N(C)C1CCc2nn(CC3CC3)c(=O)n2CC1 (stereo not drawn)	1%
O=C(NCc1ccco1)C1CCCN(c2cnn(Cc3ccccc3)c(=O)c2)C1 (stereo not drawn)	1%
Cc1cc(NC(=O)Cn2ccn3nc(-c4ccccc4)c(CO)c3c2=O)no1	4%
O=C1NCCCCCCN(Cc2ccncc2)[C@@H]2CN(C3CCOCC3)CC[C@H]12	-4%
OCC1(CN2CCCC2)CCN(Cc2cccc(O)c2)CC1	0%
C[C@@H](O)[C@H](N)C(=O)NCc1nc(-c2cccc(F)c2)c(-c2ccccn2)[nH]1	2%
COCC(=O)NC1CCC12CCN(C(=O)c1cc3ccccc3[nH]1)CC2 (stereo not drawn)	-7%
CC1(C)[C@H](Cc2cc(COc3ccccc3)on2)C[C@@H]1NC(=O)NCc1ccccc1	?
COc1cc(=O)n2c(c1C(=O)Nc1ccc(C)cc1C)CCCC2	-7%
COCCNC(=O)C(NC(=O)C1CCCC1)C1CCN(C(=O)c2ccc(F)cc2)CC1 (stereo not drawn)	5%
COCCOc1cc(=O)n2c(c1C(=O)NCc1ccccc1OC)CCOCC2	-3%
COC(=O)CC[C@H]1CNC(=O)[C@@H]2[C@@H](CCN2Cc2ncc[nH]2)N1C	7%[70.6 µM]
O=C1[C@@H]2C[C@@H](CN2C(=O)C2CCOCC2)Oc2ccccc2N1Cc1ccccc1	-5%[70.6 µM]
CN1CCN([C@H]2CCN(C(=O)c3ccc(N(C)C)nc3)C[C@H]2CCC(=O)O)CC1	7%
CC(=O)Nc1ccc(CC(=O)NCCc2noc(C3CC3)n2)cc1	0%
Cn1cc(-c2ccccc2OC(F)(F)F)c2nc(CN3CCNC(=O)C3)cn2c1=O	0%[70.6 µM]
CCNC(=O)N1CCCC1c1noc(CCC(=O)NCC(C)C)n1 (stereo not drawn)	-1%
O=C(NCCN1CCOCC1)c1ccc(C2CCCNC2)cc1 (stereo not drawn)	8%
Cc1noc([C@@H]2CN(C(=O)c3ccc4[nH]ccc4c3)C[C@H]2CO)n1	4%
N#Cc1ccc(S(=O)(=O)N2CCCOCCNC(=O)[C@@H]3CCC[C@@H]32)cc1	5%
COCCO[C@H]1C(=O)N(C2CCN(S(C)(=O)=O)CC2)[C@H]1c1ccncc1	-2%
CN1CCN(Cc2ccc(Nc3cnc4ccc(-n5ccnc5)nn34)cc2)CC1	-1%[70.6 µM]
COc1ccc2[nH]c3c(c2c1)CCNC31CCN(C(=O)Cc2ccccc2)CC1	9%
COCCNc1cc(-c2ccnc(SC)n2)c2cc[nH]c2n1	6%
COc1ccc(-c2nn(-c3ccccc3C)c(OC(C)=O)c2-c2ccc(NC(C)=O)cc2)cc1OC	-3%
CNC(=O)[C@@H]1CN(C(=O)CCc2cccc(OC)c2)C[C@H]1c1nc(C)no1	1%
CCN(C(C)=O)C1CCN(Cc2nc(-c3cccc(Cl)c3)oc2C)C1 (stereo not drawn)	-8%
C[C@H]1CCCN1C(=O)c1nnc(COc2ccccc2F)n1-c1ccccc1	-7%[70.6 µM]
CNC(=O)c1cc(-c2ccc(N3CCOCC3)cc2)cc2c1OCCN2Cc1cccnc1	1%
O=C(CN1C(=O)C(c2ccccc2)=NC12CCCC2)NC1CCCCC1	?
COc1ccc(C(=O)N2C[C@@H](Oc3ccccc3)C[C@H]2C(=O)N2CCOCC2)cc1	1%
CCCc1noc(-c2cn(C3CCN(C(=O)c4cccc(C#N)c4)CC3)nn2)n1	0%
CC(C)CCN1CCC2(CC1)CNc1ccccc1[S+](=O)([O-])N2	3%
COc1ccccc1CCC(=O)N1[C@@H]2CC[C@H]1CC(NC(=O)c1ccc(F)cc1)C2 (stereo partly drawn)	-1%
CCN1C(=O)CCN(C(=O)NC(C)C)CC12CCOCC2	-1%
COC(=O)C1=CN(CC(=O)NC(C)CCc2ccccc2)S(=O)(=O)N=C1C (stereo not drawn)	2%
CC(C)C[C@@H]1N[C@H](C(=O)N2CCN(C)CC2)Cc2cn(Cc3cccnc3)c3cccc1c23	2%
Cc1cc(CNC(=O)c2cc(C(C)C)n3ncnc3n2)c2[nH]c(C)c(C)c2c1	-11%
COc1ccc(OC)c(NC(=O)CC2CCCN(c3cn[nH]c(=O)c3)C2)c1 (stereo not drawn)	0%
CN(C)c1cccc(-c2ncc3c(n2)OCCN(Cc2ccc(F)cc2F)C3=O)c1	-9%[70.6 µM]
Cc1oc(-c2cccc(Cl)c2)nc1CN1CCN2C(=O)CNC(=O)C2C1 (stereo not drawn)	5%

Some of these compounds in order of formula weight, falling.
SMILES	hNpr1 antagonist
CC(C)C[C@@H]1N[C@H](C(=O)N2CCN(C)CC2)Cc2cn(Cc3cccnc3)c3cccc1c23	2%
COc1ccccc1CCC(=O)N1[C@@H]2CC[C@H]1CC(NC(=O)c1ccc(F)cc1)C2 (stereo partly drawn)	-1%
COC(=O)C1=CN(CC(=O)NC(C)CCc2ccccc2)S(=O)(=O)N=C1C (stereo not drawn)	2%
Cc1oc(-c2cccc(Cl)c2)nc1CN1CCN2C(=O)CNC(=O)C2C1 (stereo not drawn)	5%
COc1ccc(OC)c(NC(=O)CC2CCCN(c3cn[nH]c(=O)c3)C2)c1 (stereo not drawn)	0%

Other entries follow.
SMILES	hNpr1 antagonist
O=C(C1CC1)N1CCCC(Cc2noc(-c3ccccn3)n2)C1 (stereo not drawn)	23%
O=C1CCCCC(CNC(=O)c2cncc(Br)c2)N1 (stereo not drawn)	9%
O=C(c1cccs1)N1CCCC1c1nc(C2CCOCC2)no1 (stereo not drawn)	-6%
O=C(NCCCc1ccccc1)C1CCN(C(=O)c2ncn3c2COC(c2ccc(F)cc2)C3)CC1 (stereo not drawn)	4%
O=C(NC[C@H]1OC[C@@H](NC2CCCC2)[C@@H]1O)Nc1ccccc1	5%[70.6 µM]
COc1cccc(C(=O)N2CCN(c3cc(-c4cccs4)[nH]n3)CC2)c1OC	-1%
Cc1noc(C)c1CC(=O)N1C[C@@H](COc2ccccc2)[C@H](C(N)=O)C1	-8%
O=C(C[C@@H]1CCNC[C@@H]1Cc1cc(-c2ccccc2)on1)NC1CCCCC1	-10%[70.6 µM]
COCc1cc(C[C@@H]2CC[C@H](O)[C@@H](CNCc3ccccc3Cl)O2)no1	7%[70.6 µM]
COc1ccc(C(=O)N2CCC3(CC2)OCC(C(=O)N2CCCC2)N3C(=O)c2ccc(F)cc2)cc1 (stereo not drawn)	2%

Screens as filed in PubChem.
